Beta2AR agonist: beta2AR agonists driving receptor internalization, primary screen, cell-based, FAP fluorogen, flow cytometry; Am2.2-beta2AR cells; reference of the scale not given here; response, % (no concentration beside the values); 0.43% of 340,000 active; Beta-2 adrenergic receptor (Homo sapiens), P07550;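 active = response above a set limit, near 3 SD of response in nonfluorescent compounds, cut at about 42% in these data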;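 note: stock transfer was 100 nL into about 11 µL; a reference agonist was the positive control; negative values mostly stem from fluorescent compounds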
rRNA inh HTS: reduced GFP signal of wild-type E. coli, primary screen, bacterial rRNA inhibitor project, GFP/RFP fluorescence, OD600, single point; E. coli WT GFP vs humanized-ribosome RFP mutants, 24 h; stronger effect = lower value; DMSO median 0, no signal -100; GFP signal change (wild-type ribosome), % (no concentration beside the values); 1.6% of 350,000 active;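 active = significant combined selectivity score with lowered wild-type GFP, culture density cut under 30%, mutant RFP and density less affected; inactive = any of these conditions unmet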; note: one replicate is shown; some compounds called inactive have numbers as strong as hits
HNF4A DNA FP: change in binding of human HNF4A to DNA, primary screen, biochemical, fluorescence polarization, FITC-DNA; 1 h; activity change, % at 10 µM; 0.3% of 360,000 active; AID 1224865, 2016; in the data active = activity change above about 30%, passing the limit was not always enough;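 note: controls were the assay level and a saturating level of protein; the project sought stronger binding though the title names inhibitors; some compounds called inactive have numbers as strong as hits; positive values seem to mean higher polarization but the record does not say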
FGF22 binding: binders of human FGF22 protein, primary screen, FGF22 synaptogenesis inhibitor project, biophysical, thermal shift, single point; Fibroblast growth factor 22 (Homo sapiens), Q9HCT0; recombinant FGF22 thermal shift, SYPRO orange fluorescence; percent of sucrose octasulfate shift, DMSO zero; calls only at 9.99 µM; 1.5% of 340,000 active; AID 651658, 2012;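 active = melting point raised past a set limit in the mean and every replicate; three in four hits are not shown here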
Target sequence (Q9HCT0 whole entry, looked up): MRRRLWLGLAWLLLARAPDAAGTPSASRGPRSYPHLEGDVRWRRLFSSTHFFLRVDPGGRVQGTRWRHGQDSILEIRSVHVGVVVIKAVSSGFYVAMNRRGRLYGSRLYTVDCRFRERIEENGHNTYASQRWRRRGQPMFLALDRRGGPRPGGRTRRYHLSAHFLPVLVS
ALR inh: inhibitors of human ALR sulfhydryl oxidase, primary screen, biochemical, H2O2 detection, HRP-luminol luminescence, single point | FAD-linked sulfhydryl oxidase ALR (Homo sapiens), P55789 | purified ALR, DTT oxidation | inhibition, % (concentration not given with the values) | 3.8% of 290,000 active;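 active = mean and each replicate at 75% or more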;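 note: stock transfer was 7.5 nL into about 7.5 µL; 0% = neutral wells and 100% = wells with inactivated enzyme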
Target sequence (P55789 whole entry, looked up): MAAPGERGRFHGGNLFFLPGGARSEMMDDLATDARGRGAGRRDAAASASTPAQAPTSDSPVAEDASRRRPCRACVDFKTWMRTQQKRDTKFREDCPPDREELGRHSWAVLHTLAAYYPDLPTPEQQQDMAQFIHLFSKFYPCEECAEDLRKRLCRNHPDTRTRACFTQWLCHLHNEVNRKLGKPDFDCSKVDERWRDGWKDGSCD
UCH37 inh: inhibitors of human UCH37 deubiquitinase, primary screen, biochemical, Ub-AMC cleavage, fluorescence; 0.33% of 330,000 active; inhibition, % (no concentration beside the values); AID 588478, 2011; purified proteasome/UCH37;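 active = mean of two replicates above 20%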;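 note: 0% = compound-free wells with enzyme and 100% = wells lacking proteasome; stock transfer was 100 nL into about 20 µL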
Target sequence (Q9Y5K5 whole entry, looked up): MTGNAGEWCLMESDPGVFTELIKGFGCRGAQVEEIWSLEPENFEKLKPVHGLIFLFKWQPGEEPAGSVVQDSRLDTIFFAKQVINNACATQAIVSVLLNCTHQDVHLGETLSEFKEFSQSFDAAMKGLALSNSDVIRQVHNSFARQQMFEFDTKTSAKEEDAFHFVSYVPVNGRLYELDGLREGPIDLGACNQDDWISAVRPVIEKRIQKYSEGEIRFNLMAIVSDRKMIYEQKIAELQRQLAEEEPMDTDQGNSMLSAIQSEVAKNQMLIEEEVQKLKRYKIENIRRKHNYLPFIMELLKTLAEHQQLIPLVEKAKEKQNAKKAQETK
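system = Proteasome-associated human UCH37 deubiquitinase | amount = 0.15 nM proteasome as dispensed | medium = pH 7.4 Tris-HCl (50 mM) with ovalbumin, ATP-MgCl2, DTT | incubation = 30 min preincubation with enzyme, 25 min cleavage at room temperature | detection = AMC fluorescence 355/460 nm | read-out basis = percent inhibition | controls = no-proteasome and no-compound wells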
E coli growth: E. coli growth inhibition, primary screen, OD600. AID 1053175, 2014. Escherichia coli growth, 23 h; stronger effect = lower value. OD600 absorbance (no concentration beside the values). 0.21% of 330,000 active;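 active = OD600 absorbance below the run mean of sample wells minus 3.6 SD, in any replicate, cut at about 0.56 in these data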;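 note: stock transfer was 300 nL into about 60 µL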
rRNA inh HTS OD600: second read-out of rRNA inh HTS, no call of its own (marks repeat the call); OD600 change, %; measured here: OD600 growth;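 optical density of the mix in the first replicate; 0 = DMSO median and -100 = no signal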
rRNA inh HTS RFP: also measured in rRNA inh HTS; calls as there; RFP signal change, %; measured here: RFP humanized mutant strains;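 first replicate; 0 = DMSO median and -100 = no signal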
The depositor's hits bear a star; i = inactive; / = not tested or not shown; + = active, no number; & = joins results of further samples. An excerpt. The share of hits here may be higher or lower than overall.

SMILES	Beta2AR agonist	rRNA inh HTS	rRNA inh HTS OD600	rRNA inh HTS RFP	HNF4A DNA FP	FGF22 binding	ALR inh	UCH37 inh	E coli growth
COc1ccc(OC)c(NC(=O)CSc2nncc(=O)n2N)c1	3	/	/	/	0.6	i	-28	6.5	0.66
C=CCn1c(SCC(=O)NCC2CCCO2)nc2c([nH]c3ccccc32)c1=O (configuration not stated)	-12	7	13	0.4	-3.7	i	0	-2.5	0.72
CC(=O)C[C@H](O)CC(=O)[C@H]1OC(=O)CCCCC/C=C/Cc2ccccc21	0	1	3	0.0	-0.1	i	-6	2.3	/
O=C(NCc1ccccc1)c1cc(C2CCCN(C(=O)CCc3ccccc3)C2)on1 (configuration not stated)	/	-5	-19	-0.3	1.9	i	/	/	/
CC(=O)c1ccc(NC(=S)N2CCN(S(=O)(=O)c3ccc(F)cc3)CC2)cc1	-3	-1	-9	0.3	-0.6	i	3	0.7	0.69
COc1ccc(NC(=O)N(C)C[C@H]2OCc3cnnn3CCCC(=O)N([C@@H](C)CO)C[C@H]2C)c(OC)c1	/	4	2	0.2	1.5	i	/	/	/
CCCN(CC(=O)Nc1ccccc1C)C(=O)c1ccc(-c2ccc([N+](=O)[O-])cc2)o1	-4	-7	12	-1.3	0.5	i	12	5.7	0.73
Cn1nccc1C(=O)Nc1ccc(OC(=O)c2ccnn2C)cc1	11	/	/	/	1.0	/	3	1.8	0.67
Cc1cc(S(=O)(=O)N2CCN(CC(=O)N(C)Cc3ccccc3)CC2)ccc1Br	-5	-21	-29	2.0	8.9	i	/	-0.1	0.67
NC(=O)c1ccc(C2SCC(=O)N2CCc2ccccc2)cc1 (configuration not stated)	2	0	-3	-2.6	-3.9	i	-7	1.0	0.65
COCCC(=O)N1CCC(Oc2ccc(C(=O)NCCc3cnn(C)c3)cc2)CC1	3	-1	6	-2.2	-0.4	i	4	2.2	0.59
O=C(COC(=O)c1cc(Br)ccc1O)Nc1ccc2c(c1)OCO2	14	5	8	-1.3	4.5	i	-2	-2.2	0.69
CCOc1ccc(/C=C/c2nc(C#N)c(NCCCOC)o2)cc1	-1	-27	-21	-4.5	-4.8	i	4	-403	0.62
COC(=O)c1ccc(S(=O)(=O)NNC(=O)c2ccc(S(=O)(=O)N3CCCCC3)cc2)cc1	4	/	/	/	-2.6	/	45	-0.1	0.65
O=C(CNC(=O)c1ccccc1Cl)NC1CCN(Cc2ccccc2)CC1	-3	3	11	-4.3	-1.3	i	-30	0.0	0.67
CCN(CC)c1nc(-c2ccc(Cl)cc2)cc(C(F)(F)F)c1C#N	7	/	/	/	1.5	/	-1	-18	0.71
COc1ccc(C2(C)NC(=O)N(CC(=O)Nc3ccc(-c4nc5ccc(C)cc5s4)cc3)C2=O)cc1 (configuration not stated)	16	12	-3	-1.9	8.9	/	-6	-360	0.68
COc1ccc(-c2csc(NC(=O)CN3C(=O)NC4(CCCC4)C3=O)n2)cc1	-1	0	0	-1.2	-3.3	i	-10	0.0	0.63
O=C(OCC(=O)c1c[nH]c2ccccc12)c1ccc(F)c(S(=O)(=O)N2CCOCC2)c1	/	-7	-23	-4.2	1.3	i	/	/	/
CC(C)COC(=O)c1cc(=O)[nH]c2ccccc12	-6	/	/	/	-3.6	/	-2	-2.6	0.7
Cc1cc(=O)n(-c2ccc(O)cc2)[nH]1	-1	/	/	/	-2.3	/	99*	3.7	0.54
CCCn1c(O)c(N=NC(=O)CNC(=O)Cc2ccc(OC)cc2)c2ccccc21	3	-3	0	-0.5	2.1	i	-4	4.1	0.66
Cc1cccc(-c2nc3c(s2)CCc2onc(-c4ccc(Br)cc4)c2-3)c1	-8	10	14	-2.6	-0.6	i	2	-0.6	0.82
CC(C)(C)c1ccc(OCc2ccc(C(=O)N/N=C/c3ccc(O)c(O)c3)cc2)cc1	7	7	10	-3.0	-1.2	/	/	/	/
CCOC(=O)C1CCN(c2cc3c(cc2NC(=O)c2ccccc2)n(C)c(=O)n3C)CC1	4	10	5	2.8	0.4	i	-11	4.7	0.7

(listing goes on)
SMILES	Beta2AR agonist	rRNA inh HTS	rRNA inh HTS OD600	rRNA inh HTS RFP	HNF4A DNA FP	FGF22 binding	ALR inh	UCH37 inh	E coli growth
COc1cc(C)nc(N2CCC(C(N)=O)CC2)n1	2	/	/	/	3.9	/	-4	0.0	0.69
CN1CCN(C(=O)c2ccccc2NC(=O)c2sc3ccccc3c2Cl)CC1	-5	-12	-9	11	-2.8	i	-5	6.7	0.66
O=C(NCCc1ccccc1)c1nc2ncccn2n1	4	/	/	/	8.1	/	-1	0.1	0.71
COc1ccc(NC(=O)CCN2CCN(c3ccc(F)cc3)CC2)cc1	-4	13	18	-0.1	3.0	i	0	-1.1	0.63
O=C(CN1C(=O)NC(Cc2c[nH]c3ccccc23)C1=O)Nc1ccc(F)cc1F (configuration not stated)	-2	-3	-4	5.6	-0.8	i	-1	2.0	0.62
COc1ccc(CN2C[C@@H](CO)O[C@@H](n3cnc4c(NCc5ccco5)ncnc43)C2)cc1	/	5	1	2.2	5.0	i	/	/	/
NC(=O)CN1C(=O)NC(c2ccccc2)(c2ccccc2)C1=O	6	9	8	0.4	-0.9	i	1	1.3	0.71
Cc1cc2c(n1-c1ccc(Br)cc1)CC(C)(C)CC2=O	10	/	/	/	-0.2	/	-21	2.7	0.62
C[C@H]1CN([C@@H](C)CO)C(=O)c2cc(NC(=O)c3ccncc3)ccc2O[C@H]1CN(C)Cc1ccc(C(=O)O)cc1	0	8&-1	3&9	-0.6&-3.9	9.3	i	3	2.1	/
O=C(Nc1ccc(N2CCN(C(=O)c3ccccc3)CC2)cc1)c1cccnc1	5	1	6	-0.7	-0.7	i	12	4.6	0.67
Cc1nn(CC(=O)Nc2cccnc2)c(=O)c2ccccc12	1	0	3	-2.6	0.4	i	-3	-0.1	0.73
CCCNC(=O)c1ccc(N2CCC3(CC2)CC(c2ccccc2)=NO3)c(N)c1	4	6	7	-2.8	-0.9	i	4	-1.2	0.69
CCN(CC)c1ccc(/C=N/O)cc1	9	2	4	4.2	-0.8	i	/	/	/
COc1ccc(-c2sc3cc(OC)c(OC)cc3c2C#CC(C)(C)O)cc1	11	-6	10	-7.7	0.7	i	-6	-2.2	0.71
Cc1cc(=O)[nH]c(SCCCOc2ccc3c(c2)CCC3)n1	8	/	/	/	-0.8	/	/	2.9	0.71
CCN(CC)S(=O)(=O)c1ccc(Cl)c(NC(=O)c2cc(Cl)ccc2Cl)c1	-18	10	7	2.5	6.5	i	/	3.9	0.7
Cc1nn(C)cc1-c1n[nH]c(=S)n1-c1ccc(F)cc1	-1	7	4	5.5	-0.6	i	62	1.8	0.62
CN(C)S(=O)(=O)c1ccc(C(=O)NC2CCCc3ccccc32)cc1 (configuration not stated)	18	-2	1	-3.2	0.7	i	-22	4.3	0.7
CC1(C)C(c2cccs2)=[N+]([O-])C2(CCCCC/C2=N\NC(N)=O)N1O (configuration not stated)	4	2	9	-1.3	-0.6	/	-4	/	/
O=C(NCCCn1ccnc1)/C(=C\c1cccs1)NC(=O)c1ccccc1	-4	/	/	/	-0.5	/	-4	2.0	0.66
CCCCCCSc1ccc([C@@H]2[C@@H]3C(=O)N(CC)C(=O)[C@@H]3[C@]3(C(=O)OC)CCCCN23)cc1	27	4	4	5.2	5.5	i	-10	3.8	0.79
O=C(NC1CCCc2c1cnn2-c1cc(F)cc(F)c1)c1ccncc1 (configuration not stated)	0	3	5	1.3	7.5	i	-3	4.1	0.67
S=c1[nH]cc(-c2ccccc2)n1-c1ccccc1	6	/	/	/	-1.1	/	46	1.2	0.7
O=C(NC1CCCCC1)C(c1ccco1)N(C(=O)c1csnn1)c1cccc(F)c1 (configuration not stated)	-6	2	8	-1.5	0.6	/	-14	6.4	0.71
COC(=O)c1ccc(NC(=O)CN2CCN(c3ccccc3)CC2)cc1	-3	-17	-9	8.4	-4.5	/	92*	2.8	0.71

Further structures:
SMILES	Beta2AR agonist	rRNA inh HTS	rRNA inh HTS OD600	rRNA inh HTS RFP	HNF4A DNA FP	FGF22 binding	ALR inh	UCH37 inh	E coli growth
COc1ccc(N2CCN(S(C)(=O)=O)CC2)cc1	4	/	/	/	0.4	/	16	-0.6	0.69
CCCCCCCCOC(=O)c1c(CSC(=N)N)n(C)c2cc(Br)c(OC(C)=O)cc12	18	2	-7	-5.2	-0.5	i	69	11	0.59
CC(=O)c1ccc(NC(=O)Cn2cnc(S(=O)(=O)N3CCCCC3)c2)cc1	-3	12	7	-0.8	1.5	i	-3	4.6	0.67
CC(C)NC(=O)C1(C)Cc2c(-c3ccc(C(N)=O)cc3)ccnc2O1 (configuration not stated)	/	-1	3	-6.5	-2.9	i	/	/	/
COC(=O)CC[C@@H](C(=O)O)N1C(=O)c2ccccc2C1=O	-4	/	/	/	5.0	/	-10	-0.4	0.64
O=C(CC(=O)c1ccccc1)CS(=O)(=O)c1ccccc1	-3	-17	-47	-2.5	1.6	i	/	7.1	0.71
CCNC(=S)NCCN1CCOCC1	4	/	/	/	-2.5	/	-1	3.8	0.7
Cc1cc2nnc(SCc3ccc4c(c3)OCO4)n2c2ccccc12	0	1	-1	3.5	3.1	i	/	-11	0.73
COCCCNC(=O)C1CCN(S(=O)(=O)N(CC(C)C)CC(C)C)CC1	9	/	/	/	-1.4	/	-3	0.9	0.67
CCN1C(=O)C(CC(=O)Nc2ccc(OC)cc2)N(CCCN2CCN(c3ccc(OC)cc3)CC2)C1=S (configuration not stated)	4	-20*	-3.2*	4.3*	2.6	i	65	-0.3	0.69
C/C(=N\NC(=O)c1ccco1)c1ccc(-c2ccccc2)cc1	-2	0	9	-0.1	-1.5	i	0	/	/
CC(=O)Cc1nsc(NC(=O)c2ccc(-c3cccc(Cl)c3)o2)n1	-9	-15	-19	16	7.1	+	3	0.6	0.69
CC(C)C(=O)Nc1nc(-c2ccc(S(=O)(=O)N3CCOCC3)cc2)cs1	-2	14	11	0.7	-2.6	i	0	-4.0	0.61
CCN(Cc1cnn(C)c1)Cc1nc(C(c2ccccc2)c2ccccc2)no1	7	-4	-3	-1.6	0.2	i	-19	3.3	0.7
O=C(COC(=O)/C=C/c1ccc(OC(F)F)cc1)NC(=O)NC1CCCCC1	-1	7	13	1.4	4.2	i	-13	3.4	0.69
COCc1nc2sc3c(c2c(=O)[nH]1)CCCC3	-1	/	/	/	0.8	/	-2	0.2	0.66
CCc1sc(NS(C)(=O)=O)nc1-c1ccccc1	10	-3	0	-1.2	-1.8	/	98*	3.4	0.69
Cc1cc(C)cc(NS(=O)(=O)c2cc(Br)cnc2N)c1	2	-51	-73	-12	4.2	i	-1	0.8	0.62
Cc1nnsc1C(=O)NCc1c(F)cccc1Cl	7	2	18	-2.3	-0.2	i	9	/	/

One compound at a time (already shown). Screens in order: Beta2AR agonist	rRNA inh HTS	rRNA inh HTS OD600	rRNA inh HTS RFP	HNF4A DNA FP	FGF22 binding	ALR inh	UCH37 inh	E coli growth
`COC(=O)CC[C@@H](C(=O)O)N1C(=O)c2ccccc2C1=O` is listed with -4	/	/	/	5.0	/	-10	-0.4	0.64
`Cc1cc2nnc(SCc3ccc4c(c3)OCO4)n2c2ccccc12` is listed with 0	1	-1	3.5	3.1	i	/	-11	0.73
`CCNC(=S)NCCN1CCOCC1` is listed with 4	/	/	/	-2.5	/	-1	3.8	0.7
`COCc1nc2sc3c(c2c(=O)[nH]1)CCCC3` is listed with -1	/	/	/	0.8	/	-2	0.2	0.66
